Screening data as filed in PubChem.
VDR inh – vitamin D3 receptor (human) inhibition | P11473 | VDR-SRC2-3 peptide fluorescence polarization, 2 h | Potency, µM, without a hit: max response, negative = inhibition, usual class: inhibitors | 0.93% of 400,000 active | AID 504847; active means well fitted inhibition curve with a large enough effect; inconclusive means small, poorly fitted or top-dose-only effect, or another doubt; inactive means no such curve, though single readings can be large or run the other way; further: series mostly up to about 120 µM
Target sequence (P11473 whole entry, looked up): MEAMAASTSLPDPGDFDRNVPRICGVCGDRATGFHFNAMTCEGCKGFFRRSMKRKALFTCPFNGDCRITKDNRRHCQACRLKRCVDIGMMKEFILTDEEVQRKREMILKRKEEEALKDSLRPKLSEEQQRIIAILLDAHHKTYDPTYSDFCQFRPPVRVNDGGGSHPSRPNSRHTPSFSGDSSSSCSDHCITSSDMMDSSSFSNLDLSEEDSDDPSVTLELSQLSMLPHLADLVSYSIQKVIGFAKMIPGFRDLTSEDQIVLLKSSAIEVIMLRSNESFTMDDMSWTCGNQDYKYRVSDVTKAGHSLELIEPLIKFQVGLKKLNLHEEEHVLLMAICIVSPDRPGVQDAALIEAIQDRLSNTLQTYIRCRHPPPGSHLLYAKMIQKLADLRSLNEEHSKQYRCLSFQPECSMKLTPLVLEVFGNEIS
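The screen uses fluorescence polarization to detect compounds that interfere with recruitment of the SRC2-3 coactivator peptide to VDR; plates are read after 2 h at room temperature.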
The depositor's hits bear a star; ? = inconclusive; & = joins results of further samples; [ ] = another dose, or the depositor's remark. On the % scale 0 is the no-effect control and ±100 the full control effect; potency means the concentration at half of the fitted maximal effect.

Structure,VDR inh
Cn1cnnc1SCC(=O)NN1C(=O)NC(C)(c2ccccc2)C1=O (centres undefined),6%
Cc1nc2nc(-c3ccco3)[nH]n2c(=O)c1C,1%
C/C(=N\NC(=O)CC1N=C(Cc2ccccc2)NNC1=O)c1ccc(Cl)cc1Cl (centres undefined),-10%
CCc1nn(CC(=O)NCCCN(CC)Cc2ccccc2)c(=O)c2cc3sccc3n12,-6%
COc1cccc2sc3ccc(NCCC4CCCN4C)cc3c(=O)c12 (centres undefined),9%
O=C1c2ccccc2NC(c2cccc(F)c2)N1Cc1ccco1 (centres undefined),18%
COc1ccc(C2=NN(CC(=O)NCCCN(C)c3ccccc3)C(=O)CC2)cc1,10%
CCOc1ccccc1NC(=O)c1ccc2c(=O)n3c(nc2c1)CCCCC3,-12%
COC(=O)c1cc(NC(=O)Nc2ccc3snnc3c2)cc(C(=O)OC)c1,12%
Cc1cc(C)nc(NC(=O)c2c(-c3ccccc3Cl)noc2C)c1,13%
CC/C(=N/Nc1ccccc1Cl)c1cnnc(-c2ccccc2)n1,1%
S=C(Nc1ccccc1)Nc1cc(Cl)ccc1Oc1ccccc1,-12%
CCC(C)NC(=O)Cn1nc(C(F)(F)F)c2c1CCC2 (centres undefined),-8%
CCC(=O)Nc1ccc(C(=O)NNC(=O)C(c2ccccc2)c2ccccc2)cc1,5%
NC(=O)CC(NC(=O)c1ccccc1)c1ccc(NCCc2ccc(F)cc2)c([N+](=O)[O-])c1 (centres undefined),-6%
CCOCCCNc1nc2c(S(=O)(=O)c3ccc(CC)cc3)nnn2c2ccc(Cl)cc12,-11%
O=C(Cc1ccccc1)N1CCCC(c2nc(-c3cccs3)no2)C1 (centres undefined),-4%
Cc1ccc(C(C(=O)NC(C)(C)C)N(CC2CCCO2)C(=O)c2csnn2)cc1 (centres undefined),2%
CC1CCCC(C)N1C(=O)C1CCCCC1 (centres undefined),-12%
C=C(Cl)COC(=O)[C@H]1C2C=CC(C2)C1C(=O)O (some centres undefined),3%

Compounds shown so far that have a halogen, in the order listed:
Structure,VDR inh
C/C(=N\NC(=O)CC1N=C(Cc2ccccc2)NNC1=O)c1ccc(Cl)cc1Cl (centres undefined),-10%
O=C1c2ccccc2NC(c2cccc(F)c2)N1Cc1ccco1 (centres undefined),18%
Cc1cc(C)nc(NC(=O)c2c(-c3ccccc3Cl)noc2C)c1,13%
CC/C(=N/Nc1ccccc1Cl)c1cnnc(-c2ccccc2)n1,1%
S=C(Nc1ccccc1)Nc1cc(Cl)ccc1Oc1ccccc1,-12%
CCC(C)NC(=O)Cn1nc(C(F)(F)F)c2c1CCC2 (centres undefined),-8%
NC(=O)CC(NC(=O)c1ccccc1)c1ccc(NCCc2ccc(F)cc2)c([N+](=O)[O-])c1 (centres undefined),-6%
CCOCCCNc1nc2c(S(=O)(=O)c3ccc(CC)cc3)nnn2c2ccc(Cl)cc12,-11%
C=C(Cl)COC(=O)[C@H]1C2C=CC(C2)C1C(=O)O (some centres undefined),3%

Other entries
Structure,VDR inh
CC12CCC(=O)C=C1CCC1C2CCC2(C)C1CC1C3C(=O)N(Cc4ccccc4)C(=O)C3CC(=O)C12 (centres undefined),12%
O=C(C1CC1)N1CCc2cc(S(=O)(=O)N3CCN(c4ccccc4)CC3)ccc21,6%
O=C(c1ccc(F)cc1)N(Cc1cccs1)C1CCS(=O)(=O)C1 (centres undefined),-10%
CC(C)c1ccc(/C=N/n2c(COc3ccccc3)n[nH]c2=S)cc1,-14%
CCOc1c(Cl)cc(/C=C/C(=O)N(CC)CC(=O)Nc2ccc(NC(C)=O)cc2)cc1OC,11%
COc1ccc(OC)c(CNC(=O)c2cc3c(=O)oc4ccc(C)cc4c3s2)c1,-10%
Cc1nn(C)c(C)c1N=Cc1c(O)ccc2ccccc12,5%
COc1ccc(-c2[nH]c(-c3ccc(OC)c(OC)c3)nc2SCC(=O)Nc2ccccc2)cc1,16%
COc1ccccc1CCNC(=O)C(=O)NCC(c1ccc2c(c1)OCO2)N1CCOCC1 (centres undefined),4%
O=C1C2C3C=CC(C3)C2C(=O)N1c1ccc(Cc2ccncc2)cc1 (centres undefined),38%[activator]
CCOC(=O)N1CCC(N2Cc3cccc(C(=O)Nc4ccc(CC)cc4)c3C2=O)CC1,10%
CCC(Sc1nc(-c2ccccc2)c(C#N)c(=O)[nH]1)C(=O)Nc1nnc(C)s1 (centres undefined),9%
COCCN1C(=O)c2ccc(C(=O)NCc3ccco3)cc2C1=O,-1%
CC1(C)CN=C(c2ccccc2)NC1,-6%
CC(=O)c1ccc(-c2ccc(C(=O)NC3CC(C)(C)NC(C)(C)C3)o2)cc1,-14%
CCOC(=O)c1noc(C)c1C(=O)Nc1cccc(F)c1,4%
CCOc1ccccc1OCCCC(=O)Nc1cccc(S(=O)(=O)N2CCOCC2)c1,-7%
CC(=O)Nc1ccc(NS(=O)(=O)c2ccc3[nH]c(=O)[nH]c3c2)cc1,29%
O=C(NNc1ccccc1[N+](=O)[O-])Nc1cccc(Cl)c1,79µM*
CC(=O)c1c(C)[nH]c(C(=O)N(C)CC(=O)Nc2ccc(Cl)c(C(F)(F)F)c2)c1C,-5%

New compounds follow
Structure,VDR inh
Cc1ccc(-c2nc3ccccc3[nH]2)cc1NC(=O)c1sc2cc(Cl)ccc2c1Cl,-1%
CCOc1ccccc1N(CC(=O)N(C)Cc1ccccc1)S(=O)(=O)c1ccccc1,-15%
COC(=O)c1ccc(Cn2nc(C)c(Br)c2C)cc1,-9%
Nc1nc(=S)[nH]c2c1C1(CCCC1)Cc1ccccc1-2,2%
CCC1(CC)NC(=O)N(CC(=O)OCC(=O)NC(=O)c2ccccc2)C1=O,3%
O=C(O)c1cccc(N=NN2CCOCC2)c1,29%
O=C(NCc1ccco1)c1cccc(S(=O)(=O)N2CCOCC2)c1,-7%
O=C(CN1CCOCC1)N/N=C/C=C/c1ccccc1,-8%
COc1ccc(/C=N\NC(=O)c2sccc2C)cc1Cn1nc(C)cc1C,4%
O=C(NCCc1ccccc1)Nc1ccc2c(c1)OCO2,-3%
COc1ccc2c(c1OC)C(=O)OC2N1C(=O)CC[C@H]1C(=O)Nc1ccc(F)cc1F (some centres undefined),-10%
O=C1CCc2cc(S(=O)(=O)NC(Cc3ccccc3)C(=O)N3CCN(c4ccccn4)CC3)ccc2N1 (centres undefined),-6%
CCN(CC)S(=O)(=O)c1ccc(OC)c(NC(=O)c2ccc3c(c2)OCO3)c1,15%
Cc1nc2ccccc2c(=O)n1NC(=O)C1CC1C (centres undefined),-23%
O=C1CCc2cc(S(=O)(=O)NC(C(=O)NCc3cccnc3)c3ccccc3)ccc2N1 (centres undefined),-7%
O=C1N/C(=N/N=C/c2ccccc2)SC1(c1ccccc1)c1ccccc1,-5%
CC(=O)c1cccc(NC(=O)COC(=O)Cc2ccc(Cl)cc2)c1,3%
CN(C)/C=C(\C=O)c1c(Cl)cccc1Cl,-24%
COc1ccccc1N(C)S(=O)(=O)c1ccc(C(=O)OCC(=O)N2CCCCCC2)cc1,-25%
CCn1cc(C(=O)N2CCCCC2)c(=O)c2cc(S(=O)(=O)N3CCC(C)CC3)ccc21,3%

The list goes on:
Structure,VDR inh
CC(C)CN(C(=O)CN1CCN(c2ccccc2F)CC1)c1c(N)n(CC(C)C)c(=O)[nH]c1=O,-13%
CC(C)(C)NS(=O)(=O)c1ccc(Oc2ncc(C(F)(F)F)cc2Cl)cc1,4%
O=[N+]([O-])c1ccc2c(c1)nc1n2CCN(c2ccccc2)C1,-17%
Cc1cc[n+](Cc2ccccc2)c(N)c1,-8%
COCCCNC(=O)C1CCN(c2ncnc3c2nc2n3CCCCC2)CC1,1%
Cc1cc(-c2ccccc2)nc(N(C)NC(=O)c2c(F)cccc2F)c1S(C)(=O)=O,7%
CCC(NC(=O)COc1cc2c(c3oc(=O)c(C)c(C)c13)CCC(C)(C)O2)C(=O)O (centres undefined),10%
CCC1(c2ccc(F)cc2)NC(=O)N(CC(=O)Nc2ccc(C)c(S(=O)(=O)N3CCOCC3)c2)C1=O (centres undefined),2%
Cc1cc(C)n(-c2cc(C(C)(C)C)nc3c(-c4ccccc4)cnn23)n1,3%
O=C(OCCOc1ccc(Br)cc1)c1ccc(Cl)nc1,-12%
CCN(CC)C(=O)c1sc2c(c1C)c(=O)n(-c1ccccc1)c(=O)n2CC(=O)N(CC)c1cccc(C)c1,0%
COc1n[nH]c(C(=O)NCc2ccccc2)c1[N+](=O)[O-],7%
Nc1cccnc1S(=O)(=O)c1cccc(C(F)(F)F)c1,8%
Cc1cc(NC(=O)COCc2cc(-c3ccc(F)cc3)on2)ccc1Br,7%
O=c1ccn(-c2cccc(C(F)(F)F)c2)nc1-c1ccn(-c2cccc(Cl)c2)n1,-2%
COc1ccccc1CN1CC(C(=O)N(C)Cc2nc(C)cs2)CCC1=O (centres undefined),12%
CN1CCc2ccccc2C1Cc1ccccc1NC(=O)c1sc2ccccc2c1Cl (centres undefined),-19%
CCOC(=O)N1CCN(c2c(NCCCN3CCCC(C)C3)c(=O)c2=O)CC1 (centres undefined),9%
Oc1cccc2cnccc12,-3%
O=C(c1ccc(F)cc1)N1CCOC(c2nc(-c3ccc(F)cc3)no2)C1 (centres undefined),-2%

The closing two records of the section before lead into the next:
Structure,VDR inh
Oc1cccc2cnccc12,-3%
O=C(c1ccc(F)cc1)N1CCOC(c2nc(-c3ccc(F)cc3)no2)C1 (centres undefined),-2%
Cc1ccc2c(c1)[C@@H]1CN(C)CC[C@@H]1N2S(=O)(=O)c1ccc(F)cc1,13%
O=C1CCC(C(=O)N(CCO)Cc2ccccc2)CN1CCCN1CCOCC1 (centres undefined),-22%
Cc1cccc(NC(=O)CN2CCSc3ccccc32)c1,-10%
CN(C1CCS(=O)(=O)C1)S(=O)(=O)c1ccc2ccccc2c1 (centres undefined),17%
COCC(=O)N(Cc1cc2ccc(C)cc2[nH]c1=O)c1ccccc1C,6%
CC(=O)c1c(C)[nH]c(=S)c(C#N)c1-c1ccc(Cl)cc1,?
Cc1cc(C)nc(N/N=C/C2=C(N3CCOCC3)C(=C\c3ccc(Cl)cc3)/CC2)n1,?
Cc1nc(CNS(=O)(=O)c2ccccc2F)cs1,15%
Cc1cc(C=C2C(=O)c3ccccc3C2=O)c(C)n1C,-19%
CN(C)S(=O)(=O)c1ccc(Cl)c(C(=O)NC2CCCCCCC2)c1,-25%
Cc1ccc(C(=O)Nc2cc3[nH]c(=O)oc3cc2C)cc1,-13%
Cc1ccc(N(CC(O)Cn2nc(C)cc2C)S(=O)(=O)c2ccc3ccccc3c2)cc1 (centres undefined),-15%
Cc1cccc(-c2nc(CCNC(=O)Cc3ccc(F)cc3)cs2)c1,9%
COc1ccc(N2CC(NC(=O)N3CCc4ccccc43)CC2=O)cc1OC (centres undefined),2%
O=S(=O)(NCCN1CCCC1)c1ccc(Cl)cc1,6%
COC(=O)c1cc(Br)c(=O)n(-c2cccc(F)c2)c1,1%
COc1ccc(NC(=O)CCc2c(C)nc3nc(C)nn3c2C)cc1,-9%
COCc1cc(C)nc2oc(C(=O)c3ccccc3)c(N)c12,-5%
O=C(CNC(=O)N1CC(=O)Nc2ccccc21)Nc1cccc(F)c1,6%
N#Cc1ccsc1NC(=O)CCc1ccccc1,-15%

Carrying on:
Structure,VDR inh
CCn1ncc(CNC(=O)CCCSc2nc(-c3ccco3)cc(C(F)(F)F)n2)c1C,5%
COc1cccc(CNn2cnnc2)c1OCc1ccccc1F,-22%
CCCCNc1nc(-c2ccccc2)nc(-n2ccnc2)n1,-8%
Cc1ccc(NS(=O)(=O)c2ccc(C(=O)NCC(c3ccco3)N3CCCCC3)cc2)cc1 (centres undefined),15%
COc1ccc(CCNC(=O)C(C)n2nc(C)c3sc4ccccc4c3c2=O)c(OC)c1 (centres undefined),8%
Cc1ccc(S(=O)(=O)NC2CCOC(C)(C)C2)cc1 (centres undefined),-5%
Cc1ccc(OCc2n[nH]c(=S)n2-c2ccc(Cl)cc2)cc1,-24%
O=C(O)COc1ccc(/C=C/C(=O)c2ccc3ccccc3c2)cc1,28µM*
Cc1ccc(S(=O)(=O)Nc2ccccc2CNc2c(C)n(C)n(-c3ccccc3)c2=O)cc1,-3%
COc1ccc(C(=O)c2oc3nc(C)cc(C)c3c2N)cc1,8%
CCC1=C(OC(=O)N(CC)CC)N2C(=O)OC(=NCC3CC3)[C@]2(C)[C@H]2C1=CC[C@H]1C(=O)N(CC(=O)OC)C(=O)[C@H]12,-28%
CCCCc1c(C)c(C#N)c2nc3ccccc3n2c1NCCN(C)C,0%
O=C(O)CCCCCn1c(SCC(=O)c2ccc(O)c(O)c2)nc2ccsc2c1=O,-5%
COc1ccc(NC(=O)COC(=O)CCC2CCCCC2)cc1,-3%
CCc1cccc(NC(=O)C2CCCN2S(=O)(=O)c2ccc3c(c2)n(C)c(=O)c(=O)n3C)c1 (centres undefined),-11%&7%
c1csc(-c2noc(CN3CCOCC3)n2)c1,-6%
O=C(N1CCCC1)C12CC3CC(CC(C3)C1)C2,1%
Cc1ccc(N(CC(=O)NCc2ccco2)S(=O)(=O)c2ccccc2)cc1,-16%
CCCCn1c(N)c(N(C(=O)CSc2nnnn2-c2ccc(C)cc2)C2CCCC2)c(=O)[nH]c1=O,-2%

Some of the compounds tested; count on the stated rates, not on these rows.
